H5N1 antiviral: MDCK cell protection from H5N1 avian flu; cytopathic effect, luminescence, 72 h; hits give high values; no value below 0 was filed and about half of the inactive calls have no number; reference of the scale not given here; inhibition, % at 50 µM; 0.07% of 96,000 active; in the data active = inhibition above about 25%
* hit, by the source's call; i = inactive. Only part of the results is shown; the hit share may differ from the screen's.

SMILES	H5N1 antiviral
O=C(CSc1nc2scc(-c3ccco3)c2c(=O)n1-c1ccccc1)NCC1CCCO1 (stereo unspecified)	2.7
CC1(C)Cc2c(C#N)c(SCCC#N)nc(N3CCOCC3)c2CS1	4.7
CCCn1c(NC(=O)C2COc3ccccc3O2)nc2ccccc21 (stereo unspecified)	i
Cc1cc(NC(=O)CS(=O)(=O)c2cn(C)c3ccccc23)no1	0.2
CCOC(=O)c1nnn(-c2nc(OC)nc(N3CCCC3)n2)c1-c1ccccc1	0.4
COC(=O)Cc1cc(=O)n2[nH]c(C)cc2n1	i
Cc1occc1C(=O)N1CCN(Cc2ccccc2)CC1	0.2
CCOC(=O)N1CCC(N2C(=O)c3ccccc3C2Nc2cc(C(=O)OC)cc(C(=O)OC)c2)CC1 (stereo unspecified)	i
O=S(=O)(c1ccc2c(c1)OCO2)N1CCN(c2nnnn2-c2ccccc2)CC1	i
O=C(c1ccco1)c1n[nH]nc1-c1ccccc1	0.4
CC(C)=CCSc1nnc([C@@H](NC(=O)OC(C)(C)C)C(C)C)o1	i
C=CCNS(=O)(=O)c1cccc2cc(C(=O)O)c(O)cc12	2.9
Cc1ccc(C)c(NC(=O)C2CC=CCC2C(=O)O)c1 (stereo unspecified)	0.8
C=CCN(C1CCCCC1)S(=O)(=O)c1ccc2c(c1)oc(=O)n2C	1.4
CCN(CC)c1c(-c2ccccc2)c2cc(C)ccc2[nH]c1=O	0.4
C=CCn1c(Cc2cccs2)nnc1SCC(=O)c1ccc2ccccc2c1	0.2
COc1cccc(CNC(=O)C2CCN(S(=O)(=O)N3CC(C)CC(C)C3)CC2)c1 (stereo unspecified)	i
O=C(Nc1ccccc1)c1ccc(S(=O)(=O)N2CCCC2)cc1	i
COc1cc(S(=O)(=O)Nc2ccccn2)ccc1F	i
COP(=O)(CC(=O)O)c1ccccc1 (stereo unspecified)	i
O=C(c1ccccc1-c1nc(-c2ccccc2)no1)N1CCCC1	i
CCC(=O)Nc1ccc(N2CCN(CC)CC2)c(Cl)c1	i
O=C(COc1ccc(Cl)cc1Br)N1CCN(c2ccccc2)CC1	1.2
O=C(c1ccc(Cl)cc1)c1oc2ccccc2c1CS(=O)c1ccc(Cl)cc1 (stereo unspecified)	i
Cc1cc(NC(=O)CCC(=O)N(CC(=O)NC2CCCC2)Cc2ccc(F)cc2)no1	1.9
O=c1ccc(NS(=O)(=O)c2ccc(Cl)cc2)cn1Cc1ccc(Cl)c(Cl)c1	i
C=CCn1c(-c2ccccc2)nc2nc3ccccc3nc21	3.2
COc1ccc(C(=O)NCC(=O)NCC2(N(C)C)CCCCC2)cc1OC	0.3
O=C(CSc1nc(-c2ccc(F)cc2)cs1)NC(=O)NCc1ccco1	i
Cc1ccccc1S(=O)(=O)NC1OC(=O)C(Cl)=C1Cl (stereo unspecified)	i
COc1ccc(NC(=O)c2ccc(COc3ccccc3OC)o2)cc1OC	i
Cc1ccccc1C(=O)N/N=C/c1ccncc1	i
CC(=O)Nc1c(NCC(C)C)c2ccccc2oc1=O	i
CC(C)CSc1nnc(N)s1	i
COc1ccccc1NC(=O)C1=C(C)Nc2nnnn2C1c1cc(Br)ccc1OC (stereo unspecified)	0.2
Cc1c(CN(C)C)c2c(n1Cc1ccccc1)C(=O)c1ccc(Br)cc1-2	i
COC(=O)c1cc(COC(=O)c2cccnc2SC)oc1C	i
COc1ccc(CCNC(=O)C2CCN(S(=O)(=O)c3c(C)noc3C)CC2)cc1OC	0.7
Cc1cccnc1Nc1nc(-c2ccccn2)cs1	0.8
Cc1ccc(S(=O)(=O)NC(CC(C)C)C(=O)Nc2nccs2)cc1 (stereo unspecified)	i
COc1cccc(NC(=O)c2oc3ccccc3c2NC(C)=O)c1	i
COC(=O)CSc1ccc2nnc(-c3ccc(OC)c(OC)c3)n2n1	0.9
Cc1cccc(N2CCN(C(=O)C3CCCCC3)CC2)c1C	0.5
Cc1nn(CC(=O)Nc2nc3ccccc3s2)c(C)c1[N+](=O)[O-]	i
O=C(NCc1ccccc1C(F)(F)F)C1CC(c2ccccc2[N+](=O)[O-])=NO1 (stereo unspecified)	0.4
COc1cccc(CNc2ccc(S(N)(=O)=O)cc2)c1OC	1.5
O=C(c1ccccc1)c1ccc(N2CCOCC2)c(NC(=O)c2ccco2)c1	i
CCNc1nc(SC(C)C(=O)Nc2ccccc2)nc(N2CCOCC2)n1 (stereo unspecified)	0.3
O=S(=O)(c1ccc2oc3ccccc3c2c1)N1CCOCC1	0.8
COc1ccc(Nc2ncnc3nc[nH]c23)cc1OC	3.0
COc1ccc(NC(=O)c2cc(-c3ccc(C)o3)nc3ccccc23)cc1OC	0.5
O=C(Cc1csc(N2CCOCC2)n1)N/N=C/c1ccc(Cl)cc1Cl	0.5
CCCNC(=O)NC(=O)CSc1nnc(-c2ccncc2)n1CC	i
Cc1cc(N)ccc1N1CCCC1	1.9
N#Cc1c(NC(=O)c2ccc(-c3ccccc3[N+](=O)[O-])o2)sc2c1CCCC2	i
O=C(Nc1ccc(S(=O)(=O)N2CCOCC2)cc1)C1COc2ccccc2O1 (stereo unspecified)	0.4
CN1OC(COC(=O)c2ccc(Cl)cc2)CC1c1ccccc1 (stereo unspecified)	0.4
CC(C)(C)c1nc(SCC(=O)Nc2ccc3c(c2)OCCO3)c2ccccc2n1	i
CCc1ccc2nc3n[nH]c(N)c3cc2c1	0.2
N#Cc1c(N)oc(-c2ccco2)c1-c1ccco1	2.5

Reprinted from above, 16 compounds:
SMILES	H5N1 antiviral
O=C(NCc1ccccc1C(F)(F)F)C1CC(c2ccccc2[N+](=O)[O-])=NO1 (stereo unspecified)	0.4
COc1cccc(CNc2ccc(S(N)(=O)=O)cc2)c1OC	1.5
O=C(c1ccccc1)c1ccc(N2CCOCC2)c(NC(=O)c2ccco2)c1	i
CCNc1nc(SC(C)C(=O)Nc2ccccc2)nc(N2CCOCC2)n1 (stereo unspecified)	0.3
O=S(=O)(c1ccc2oc3ccccc3c2c1)N1CCOCC1	0.8
COc1ccc(Nc2ncnc3nc[nH]c23)cc1OC	3.0
COc1ccc(NC(=O)c2cc(-c3ccc(C)o3)nc3ccccc23)cc1OC	0.5
O=C(Cc1csc(N2CCOCC2)n1)N/N=C/c1ccc(Cl)cc1Cl	0.5
CCCNC(=O)NC(=O)CSc1nnc(-c2ccncc2)n1CC	i
Cc1cc(N)ccc1N1CCCC1	1.9
N#Cc1c(NC(=O)c2ccc(-c3ccccc3[N+](=O)[O-])o2)sc2c1CCCC2	i
O=C(Nc1ccc(S(=O)(=O)N2CCOCC2)cc1)C1COc2ccccc2O1 (stereo unspecified)	0.4
CN1OC(COC(=O)c2ccc(Cl)cc2)CC1c1ccccc1 (stereo unspecified)	0.4
CC(C)(C)c1nc(SCC(=O)Nc2ccc3c(c2)OCCO3)c2ccccc2n1	i
CCc1ccc2nc3n[nH]c(N)c3cc2c1	0.2
N#Cc1c(N)oc(-c2ccco2)c1-c1ccco1	2.5

Continuation:
SMILES	H5N1 antiviral
O=C(CCC(=O)N1CCN(c2ccccn2)CC1)Nc1nnc(C2CCCCC2)s1	0.8
COc1ccc(Nc2nnc(C)c3ccccc23)cc1C(N)=O	0.1
CCn1c(SCC(=O)NC(C)C)nnc1-c1cccs1	i
NC(=O)C1(S(=O)(=O)c2ccccc2)CCCCC1	1.8
CCOc1ccc(N2C(=O)C(Cl)=C(Nc3ccccc3O)C2=O)cc1	i
CC(C)CSc1nc(N2CCOCC2)c2c(c1C#N)CC(C)(C)SC2	0.5
CC1CCC(NC(=O)c2cc3c(=O)n(C)c4ccccc4c3n2C)CC1 (stereo unspecified)	i
COCCCNC(=O)CC(NS(=O)(=O)c1ccc(C)cc1)c1ccco1 (stereo unspecified)	i
Cc1nc2ncnn2c(C)c1CCC(=O)NCc1ccc2c(c1)OCO2	i
COc1ccccc1NC(=O)NCc1ccc2c(c1)OCO2	i
COc1ccc2[nH]cc(C=O)c2c1	i
N#Cc1c(C#N)c(-c2ccccc2)n(-c2ccc(C(=O)O)cc2)c1N	0.2
Cc1cccc(NC(=O)/C(C#N)=C\c2cccnc2)c1	i
Cc1cc(=O)oc(C)c1C(=O)N1CCCc2ccccc21	0.8
COC(=O)c1c(NC(=O)c2ccc(C)o2)sc2c1CCCCC2	i
COc1cccc2[nH]c3c(N4CCC(C)CC4)ncnc3c12	0.8
COc1cccc(C2=NOC(C(=O)Nc3cc(OC)c(OC)c(OC)c3)C2)c1 (stereo unspecified)	i
CCN(C(=O)COc1cc(=O)n(C)c2ccccc12)c1cccc(Cl)c1	3.7
Cc1cc(NC(=O)CSc2nc3ccsc3c(=O)n2CCCCC(=O)O)no1	1.9
COc1ccccc1-c1noc(CCC(=O)Nc2cc(C(F)(F)F)ccc2Cl)n1	i

More compounds follow:
Molecule	H5N1 antiviral
O=C(NC1CCCCC1)C1CCN(S(=O)(=O)c2cccs2)CC1	0.7
O=C(Cc1cccc2ccccc12)NCC1CCCO1 (stereo unspecified)	i
Cn1c(C(=O)NCCN2CCOCC2)cc2c(=O)n(C)c3ccccc3c21	4.2
Cc1cccc(N2CCN(S(=O)(=O)c3ccc4c(c3)CCC(=O)N4)CC2C)c1 (stereo unspecified)	i
CC1(C)CN2C(=S)N(c3ccccc3)C(c3ccccc3)N2C1 (stereo unspecified)	0.6
COc1ccc2cc(C(=O)Nc3ccc(F)cc3)sc(=O)c2c1OC	i
Cn1c(C(=O)NCCN2CCc3ccccc3C2)cc2c(=O)[nH]c3ccccc3c21	0.9
CCn1c(=O)cc(C(=O)OC)sc1=Nc1ccc(F)c(F)c1	i
CN(Cc1c(F)cccc1Cl)c1nnnn1-c1ccccc1	1.1
O=C1CC(Sc2ncccn2)C(=O)N1c1ccccc1 (stereo unspecified)	1.0
O=C(NC(NCCCN1CCOCC1)(C(F)(F)F)C(F)(F)F)C1CCCCC1	0.4
Nc1ccc(-c2nc3ccc(N)cc3o2)cc1	i
CCCCOC(=O)C1[C@H]2C(=O)N(c3ccccc3CC)C[C@]23C=C[C@H]1O3 (stereo partly specified)	1.7
CN(Cc1ccccc1)C(=O)COc1cc(=O)n(C)c2ccccc12	0.8
O=C(CN(Cc1ccccc1)S(=O)(=O)c1ccc(F)cc1)NCCC1=CCCCC1	5.1
O=C(O)c1cc(NCc2ccccc2)ccc1N1CCOCC1	0.7
Cc1ccccc1NC(=O)Cn1cccc1	i
COC(=O)c1ccc(N2C(=O)CC(N3CCOCC3)C2=O)cc1 (stereo unspecified)	0.2
Cc1ccc(/C=N/NC(=O)c2c[nH]c3ccccc23)s1	0.2
Cc1cc(C)n2ncc(C(=O)NCc3cccnc3)c2n1	0.7
COc1cc(C(=O)Nc2ccc3c(c2)C(=O)N(CCC(=O)O)C3=O)cc(OC)c1OC	i
Cc1cc(=O)oc(C)c1C(=O)NCCN1CCOCC1	1.0
O=C(Nc1ccncc1)c1ccc2c(c1)C(=O)N(C1CCCCC1)C2=O	1.5
COc1ccnc(N2CCN(c3ccccc3)CC2)c1C#N	0.4
COc1ccccc1NC(=O)Cn1c(CN2CCCCC2)nc2ccccc2c1=O	i
N#CC1(Cc2ccc(Cl)cc2)c2ccccc2C=CN1C(=O)c1ccccc1 (stereo unspecified)	2.8
COc1ccccc1NC(=O)N1CCCC1C(=O)NCc1ccc(F)cc1 (stereo unspecified)	0.1
COc1ccc(-c2cc(C(F)(F)F)nc(N3CCCCCC3)n2)cc1	i
CC(C)(C)c1ccc(CN(Cc2ccccc2)C(c2ccccn2)c2nnnn2C(C)(C)C)cc1 (stereo unspecified)	0.8
CCSc1c(C(=O)NC)ccc2c1C(=O)c1ccccc1C2=O	i
Cc1ccc(C2(C)NC(=O)N(CCOc3ccccc3)C2=O)cc1 (stereo unspecified)	i
CCN(CC)C(=O)c1cn(CC)c(=O)c2cc(OC)c(OC)cc12	0.9
COc1ccc(OC)c(-n2c(=S)[nH]c3cc(C(=O)NCCCN4CCCC4=O)ccc3c2=O)c1	i
Cc1ccc(N2CC(C(=O)OCc3ccccc3F)CC2=O)cc1 (stereo unspecified)	i
COc1ccc(NC(=S)NNC(=O)OC(C)(C)C)cc1OC	i
Cc1ccc(/C=N/NC(=O)CCCOc2ccc(Cl)cc2Cl)cc1[N+](=O)[O-]	i
CC(C)CCNS(=O)(=O)c1ccc(-c2ccc(S(=O)(=O)NCCC(C)C)cc2)cc1	0.1
O=C(Nc1cccnc1)c1ccccc1F	i
c1ccc(-c2nnc(SCc3cn4ccsc4n3)o2)cc1	2.3
Cn1c(=O)c2c(nc(CN3CCc4ccccc4C3)n2Cc2cccc(Cl)c2)n(C)c1=O	13
CC(=O)c1ccc(OCC(=O)NC2CCS(=O)(=O)C2)cc1 (stereo unspecified)	0.9
Cc1ccc(-c2noc(CN3CCOCC3)n2)cc1	i
Cc1ccc(-c2noc(CCC(=O)N3CCCC3)n2)cc1	0.4
C=CCn1c(SCC(=O)NC(=O)NCc2ccco2)nc2sc(C)c(C)c2c1=O	i
CCN1CCN(c2cc(C)c3cc(NC(=O)c4ccc5c(c4)OCO5)ccc3n2)CC1	i
O=C(CCc1ccccc1)NNC(=O)c1ccco1	i
CC1=C(C(=O)OC(C)C)C(C)NC(=O)N1 (stereo unspecified)	0.2
CCOCc1nnc(NC(=O)c2ccco2)s1	2.0
CCCCCOC(=O)NCCOC(=O)Nc1ccc(C(=O)OCC)cc1	i
CCOC(=O)c1c(C)n(C)c2ccc(O)c(CN3CCCCC3)c12	0.4
CC(C)(C)c1ccc(-c2nnc(SCC(=O)O)n2N)cc1	i
CC(C)Oc1ccc(C(CC(=O)O)NC(=O)CSc2ncn[nH]2)cc1 (stereo unspecified)	0.4
CC(C)(C)c1ccc(C(=O)N2CCC(C(=O)NCCC3=CCCCC3)CC2)cc1	i
Clc1ccc(CSC2=NCCCN2)cc1Cl	i
Cc1cc(=O)oc2cc(OCC3CC(c4ccccc4)=NO3)ccc12 (stereo unspecified)	i
COC(=O)C1C2C=CC(C3CC23)C1C(=O)OCC(=O)c1ccc(OC)cc1 (stereo unspecified)	0.7
